# Bfl-1 A1 inh: inhibitors of the anti-apoptotic protein A1, read as caspase activation | MEF A1-2A-BIM cells, Caspase-Glo 3/7 luminescence, 3 h; percent of clofoctol response, vehicle zero | actives 0.066% (n = 330,000) | caspase activation, % (concentration not given with the values);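 active = over half of replicate activation scores above 10%, or exactly half above 10 with the replicate mean above 10; inconclusive = replicate mean below 10 yet half the replicates above 10; inactive = over half of replicates below 10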;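 also: wells of about 30 µL received 50 nL stock; many hits fall short of the cut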
# T cruzi inh: T. cruzi replication inhibition | T. cruzi beta-gal in NIH3T3, luminescence, 90 h | inhibition, % (no concentration beside the values) | actives 1.4% (n = 300,000);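 active = mean inhibition across valid replicates above about 55%, limit read from the data; inconclusive = mean below that limit but half or more replicates reach it; inactive = mean below it, under half of replicates reach it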;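 also: signal also drops with host cell toxicity which is not excluded here; 0% = plate median of DMSO wells and 100% = zero luminescence signal; higher percent means less beta-gal luminescence so fewer parasites; stock transfer was 50 nL into about 50 µL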
# Calb FLC: C. albicans growth modulation with fluconazole; C. albicans CaCi-2 (fluconazole-resistant clinical isolate) + fluconazole, Alamar Blue growth, 48 h; growth inhibition, % (test concentration not listed); actives 0.57% (n = 300,000);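 active = most replicates above 75%; inconclusive = exactly half above 75%; inactive = most below 75%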;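 also: all wells also contain fluconazole at 8 µg/ml as a sub-toxic cotreatment; 0% = median of DMSO wells and 100% = median of geldanamycin control wells; wells of about 8 µL received 7.5 nL stock; the first replicate is given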
# UCH37 DUB inh: blocks the human deubiquitinase UCH37. Q9Y5K5. purified proteasome/UCH37, Ub-AMC cleavage fluorescence. inhibition, % (concentration not given with the values). actives 0.33% (n = 330,000). AID 588478;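 active = mean of two replicates above 20%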;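 also: 0% = compound-free wells with enzyme and 100% = wells lacking proteasome; stock transfer was 100 nL into about 20 µL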
#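 Signal – fluorescence, ex 355 nm, em 460 nm · System – Proteasome-bound UCH37 · Input – 0.15 nM proteasome as dispensed · Timing – 30 min preincubation with enzyme, 25 min cleavage at room temperature · Read-out basis – percent inhibition of cleavage signal versus uninhibited and no-proteasome wells · Medium – Tris-HCl pH 7.4 with ATP-MgCl2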
# LANA-H2A inh: blocks KSHV LANA binding to histone H2A/H2B | cell-free LANA-H2A/H2B peptide, fluorescence polarization | actives 0.6% (n = 320,000) | inhibition, % (concentration not given with the values) | Q9QR71; in the data active = inhibition mostly above about 10%, no sharp cut-off; inactive = mostly below about 6.7%;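 also: stock transfer was 7.5 nL into about 10 µL; 0% = median of vehicle wells and 100% = median of positive control wells; one replicate is shown; the record names a cut of 25% in any replicate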
# Target sequence (Q9QR71 whole entry, looked up): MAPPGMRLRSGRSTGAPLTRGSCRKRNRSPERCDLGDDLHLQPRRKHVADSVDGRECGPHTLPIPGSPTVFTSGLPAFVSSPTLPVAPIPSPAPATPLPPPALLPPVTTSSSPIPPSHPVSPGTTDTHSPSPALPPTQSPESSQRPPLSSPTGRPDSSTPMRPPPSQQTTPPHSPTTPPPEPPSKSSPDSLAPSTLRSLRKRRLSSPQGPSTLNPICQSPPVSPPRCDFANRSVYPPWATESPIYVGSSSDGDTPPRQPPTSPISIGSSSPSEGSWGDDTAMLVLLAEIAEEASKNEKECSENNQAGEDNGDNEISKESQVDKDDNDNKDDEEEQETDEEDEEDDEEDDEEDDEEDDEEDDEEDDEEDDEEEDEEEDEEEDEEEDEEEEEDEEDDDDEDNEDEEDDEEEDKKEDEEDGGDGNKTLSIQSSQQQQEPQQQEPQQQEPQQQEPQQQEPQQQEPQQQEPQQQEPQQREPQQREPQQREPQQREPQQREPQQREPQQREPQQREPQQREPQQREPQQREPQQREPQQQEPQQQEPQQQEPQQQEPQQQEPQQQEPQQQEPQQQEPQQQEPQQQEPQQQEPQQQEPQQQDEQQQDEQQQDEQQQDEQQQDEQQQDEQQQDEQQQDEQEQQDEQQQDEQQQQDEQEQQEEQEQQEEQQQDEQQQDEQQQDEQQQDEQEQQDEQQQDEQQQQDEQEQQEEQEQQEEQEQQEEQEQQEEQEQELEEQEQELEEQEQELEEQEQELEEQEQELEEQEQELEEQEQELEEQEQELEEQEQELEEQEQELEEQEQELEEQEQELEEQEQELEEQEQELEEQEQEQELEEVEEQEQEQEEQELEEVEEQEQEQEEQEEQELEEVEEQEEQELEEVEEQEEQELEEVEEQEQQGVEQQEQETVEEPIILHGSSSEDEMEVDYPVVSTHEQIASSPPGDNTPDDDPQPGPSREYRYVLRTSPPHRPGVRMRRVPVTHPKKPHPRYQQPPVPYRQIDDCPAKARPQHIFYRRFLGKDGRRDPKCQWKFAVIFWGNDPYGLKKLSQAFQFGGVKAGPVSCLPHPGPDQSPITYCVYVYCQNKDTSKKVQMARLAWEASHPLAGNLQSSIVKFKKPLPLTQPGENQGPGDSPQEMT
# RanGTP-Impb inh: inhibitors of RanGTP-importin-beta interaction, primary screen, biochemical, FRET, CFP-Ran, YFP-importin-beta, homogeneous. cell-free CFP-Ran/YFP-importin-beta FRET ratio. inhibition, % (no concentration beside the values). actives 1.1% (n = 300,000);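 active = most replicates above 15%; inconclusive = exactly half above 15%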;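 also: 0% = DMSO wells and 100% = Ran loaded with GDP instead of GTP; wells of about 40 µL received 100 nL stock; the first replicate is given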
# Beta apoptosis: blocks beta cell apoptosis; INS-1E cytokine-induced death, ATP luminescence, 48 h; percent of positive-control rescue, neutral wells zero; protection from apoptosis, % (no concentration beside the values); actives 0.8% (n = 300,000); AID 435005;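 active = all replicates at 75% or more, or half of them and the mean; inconclusive = half reach 75% but not the mean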;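 also: 0% = cytokine-treated negative control wells and 100% = positive control rescue; higher means more ATP so stronger rescue from cytokine killing; wells of about 40 µL received 100 nL stock; the first replicate is given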
# Beta2AR agonist: human beta-2 adrenergic receptor agonism by FAP; response, % (test concentration not listed); actives 0.43% (n = 340,000); P07550; Am2.2-beta2AR cells, FAP receptor internalization, flow cytometry; reference of the scale not given here;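 active = response above a set limit, near 3 SD of response in nonfluorescent compounds, cut at about 42% in these data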;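 also: stock transfer was 100 nL into about 11 µL; a reference agonist was the positive control; negative values mostly stem from fluorescent compounds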
# Numbers without * were called inactive; i = inactive; ? = inconclusive; nt = not tested or not shown.
SMILES,Bfl-1 A1 inh,T cruzi inh,Calb FLC,UCH37 DUB inh,LANA-H2A inh,RanGTP-Impb inh,Beta apoptosis,Beta2AR agonist
CCS(=O)(=O)Nc1ccc(NC(C)=O)cc1,2.2,8,-8,-1.6,-0.1,-1.8,-3,-16
Cc1nc(C(=O)Nc2ccccc2Cl)cc2c1[nH]c1ccccc12,1.1,22,3,-4.8,8.3*,2.5,13,-5
O=[N+]([O-])c1ccccc1CNCCCCCO,-0.9,nt,nt,-179,0.9,nt,-11,1
O=C1CS/C(=C/C(=O)c2ccccc2)N1,1.7,-10,-11,18,-3.4,2.7,-2,-3
Cc1cc(NC(=O)CSc2nc(-c3ccccc3)c(C#N)c(=O)[nH]2)no1,nt,6,16,5.3,nt,0.1,nt,16
C=CCOC(=O)C1=C(C)Nc2[nH]c(=O)[nH]c(=O)c2C1c1ccccc1 (configuration not stated),0.3,17,nt,-3.4,-4.6,nt,-11,-1
C=CCN(CC=C)CCOc1ccc2ccccc2c1,1.4,21,-3,2.3,1.6,?,-3,-1
Cc1[nH]c(C)c2c(=O)n(-c3ccccc3)ncc12,-0.9,-17,-9,0.4,-10,-1.4,0,-12
Cc1ccc2nc3c(cc2c1)c(NS(=O)(=O)c1ccccc1)nn3CC(C)C,1.9,31,9,-21,0.2,-2.9,1,-4
Cc1nccn1CCC(=O)O,2.2,-7,-1,1.2,-10,2.1,-5,3
O=[N+]([O-])/C(C(Cl)=C(Cl)Cl)=C(/Sc1ccccc1)N1CCCCC1,0.2,-50,-2,7.4,-1.2,-2.6,-8,10
Cc1cc(C)nc(N/N=C/c2ccccc2OCc2ccc(Br)cc2)n1,-1.7,7,-9,nt,6.1,-1.2,-6,27
COc1cc(C(=O)NC2CCCc3ccccc32)cc(OC)c1C (configuration not stated),1.1,0,-9,-2.5,1.3,-3.7,nt,7
Cc1ccc(/C=N/N2CCN(C3c4ccccc4-c4ccccc43)CC2)o1,-0.2,-2,-8,nt,-2.0,-0.8,0,3
CCOC(=O)c1c(N)n[nH]c1-c1ccccc1,-0.4,3,-20,-0.1,-1.7,-3.5,-6,16
CCOC(=O)C(C)(C)Sc1nc2c(cnn2-c2ccc(C)cc2)c(=O)[nH]1,0.4,15,-2,0.0,0.1,-1.3,-12,3
CC(=O)N1c2ccc(S(=O)(=O)NCc3ccccc3Cl)cc2CC1C (configuration not stated),0.0,-12,-5,0.7,-2.2,6.5,3,-7
COc1cc(C(=S)N2CCCC2)ccc1OCc1ccccc1,-0.9,-2,13,1.6,-4.1,2.8,-2,-5
COc1cc2c(cc1OC)C(C)N(C(=O)c1cc(Cl)nc(Cl)c1)CC2 (configuration not stated),1.2,3,3,3.5,2.8,-6.2,-2,23
S=C(NCCN(C1CCCCC1)C1CCCC1)Nc1cccc(Cl)c1,0.6,32,9,0.4,3.7,-3.6,12,21

# By substructure: the entries above with sulfur.
SMILES,Bfl-1 A1 inh,T cruzi inh,Calb FLC,UCH37 DUB inh,LANA-H2A inh,RanGTP-Impb inh,Beta apoptosis,Beta2AR agonist
CCS(=O)(=O)Nc1ccc(NC(C)=O)cc1,2.2,8,-8,-1.6,-0.1,-1.8,-3,-16
O=C1CS/C(=C/C(=O)c2ccccc2)N1,1.7,-10,-11,18,-3.4,2.7,-2,-3
Cc1cc(NC(=O)CSc2nc(-c3ccccc3)c(C#N)c(=O)[nH]2)no1,nt,6,16,5.3,nt,0.1,nt,16
Cc1ccc2nc3c(cc2c1)c(NS(=O)(=O)c1ccccc1)nn3CC(C)C,1.9,31,9,-21,0.2,-2.9,1,-4
O=[N+]([O-])/C(C(Cl)=C(Cl)Cl)=C(/Sc1ccccc1)N1CCCCC1,0.2,-50,-2,7.4,-1.2,-2.6,-8,10
CCOC(=O)C(C)(C)Sc1nc2c(cnn2-c2ccc(C)cc2)c(=O)[nH]1,0.4,15,-2,0.0,0.1,-1.3,-12,3
CC(=O)N1c2ccc(S(=O)(=O)NCc3ccccc3Cl)cc2CC1C (configuration not stated),0.0,-12,-5,0.7,-2.2,6.5,3,-7
COc1cc(C(=S)N2CCCC2)ccc1OCc1ccccc1,-0.9,-2,13,1.6,-4.1,2.8,-2,-5
S=C(NCCN(C1CCCCC1)C1CCCC1)Nc1cccc(Cl)c1,0.6,32,9,0.4,3.7,-3.6,12,21

# Remaining list, next part
SMILES,Bfl-1 A1 inh,T cruzi inh,Calb FLC,UCH37 DUB inh,LANA-H2A inh,RanGTP-Impb inh,Beta apoptosis,Beta2AR agonist
CC1(C)CC(=O)C=C(NCc2cccs2)C1,0.2,23,5,0.2,-4.9,0.8,-14,-9
CCCOC(=O)c1ccc(-n2nnnc2SCC(=O)N2CCCCC2)cc1,-0.4,-7,0,1.4,0.3,3.3,-3,1
CCCS(=O)(=O)N1CCCC(C(=O)NCCc2ccccc2)C1 (configuration not stated),-0.3,-5,-4,3.1,-1.7,-1.8,nt,-7
COc1ccc(OCC(=O)Nc2ccccc2OC(F)F)cc1,0.1,3,-13,3.6,0.7,0.9,-2,1
CC(C)CCn1c(N2CCC(C(N)=O)CC2)nc2c1c(=O)[nH]c(=O)n2C,0.5,-7,-4,0.2,0.6,6.6,-9,-13
Cc1ccc(CNS(=O)(=O)c2c(C(=O)N3CCCCC3)c(C)n(C)c2C)cc1,-0.3,-3,-9,-0.4,0.9,5.4,nt,4
Cc1cccc2nc(CSC(=N)N)c(Br)n12,0.1,-22,-12,3.0,3.9,4.3,-9,-9
CCNCCNC(=O)c1c(O)c2cccc3c2n(c1=O)CCC3,0.6,8,-3,0.4,4.2,2.8,8,-4
O=C(Cn1nc(-c2ccccc2)c2ccccc2c1=O)Nc1ccccn1,0.3,3,-19,0.0,-9.1,1.3,-2,-1
Cc1cc(C)nc(N2CCCC(C(=O)Nc3ccc4c(c3)OCO4)C2)n1 (configuration not stated),-0.8,6,2,4.1,-4.7,-3.5,6,10
Cc1cc(C(=O)OCC(=O)N2CCN(C(=O)c3ccco3)CC2)c(C)n1-c1ccc(F)cc1,-0.7,-10,-5,2.1,-6.2,-3.0,-1,-6
Cn1c(-c2ccc(Cl)nc2)nc2ccccc21,-1.2,5,-2,-7.6,-6.1,1.8,-2,-2
COCCNC(=O)c1onc(CSc2cccc(OC)c2)c1C(=O)NCCOC,0.6,-12,5,2.7,-6.0,0.3,-2,-3
COc1ccc(CN(C)C(=O)Cn2cnc3c(SC)nc(N)nc32)cc1OC,1.3,nt,nt,2.1,0.1,nt,6,0
COCCn1c(SCC(=O)c2[nH]c(C)c(C(C)=O)c2C)nc2ccccc21,0.4,30,8,0.8,-0.9,4.6,-4,-3
CCN(CC)S(=O)(=O)c1c(Br)cc(C)cc1Br,-0.1,7,-15,0.9,0.5,-3.9,-15,1
Cc1cc(=O)oc2c3c(cc(OCC(=O)NCc4ccco4)c12)OC(C)(C)CC3,0.7,15,21,-458,1.2,3.2,8,-12
COc1ccc(C(=O)NC(=S)Nc2ccc(Cl)cn2)cc1OC,0.3,-17,40,2.6,3.1,-1.6,-5,-34
CCCCOC(=O)c1ccc(Nc2ccc([N+](=O)[O-])cn2)cc1,-0.3,-1,2,-9.6,-4.7,4.3,3,-6
CCCc1cc(=O)[nH]c(SCC(=O)Nc2ccc(C(=O)Nc3ccccc3OC)cc2)n1,-1.0,nt,nt,-0.3,0.4,nt,7,4
CCOC(=O)N1CCC(NC(=O)C2CCN(c3ccc(N4CCOCC4)nn3)CC2)CC1,-0.3,-14,7,-311,1.1,5.9,3,8
CC(C)(C)C1CCC(C(=O)Nc2cccnc2)CC1 (configuration not stated),0.2,-1,-19,7.4,nt,-1.9,-2,-2
COc1ccc(NC(=O)c2ccc(CN3CCc4ccccc4C3)cc2)c(OC)c1,0.4,22,3,4.7,-2.2,0.4,2,-2
O=C(O)CCc1ccc(-c2ccc(F)cc2)n1Cc1ccco1,0.5,-1,2,-3.4,0.1,-0.5,-2,1
CC1=C(C(=O)OC2CCCC2)C(c2coc3ccc(C)cc3c2=O)C2=C(CCCC2=O)N1 (configuration not stated),0.0,14,33,-0.1,1.0,?,6,-8
COc1ccc(-n2ncc3c2CC(C)(C)CC3NC(=O)C2=CC(=O)CC(C)(C)O2)cc1 (configuration not stated),-0.4,-1,2,-1.4,-1.2,0.6,1,8
COc1cc(CC(=O)N(c2ccccc2)c2nc(C)cs2)cc(OC)c1OC,0.6,-2,-9,-2.1,-2.1,0.8,5,16
CCC(O)C(C)(C)C (configuration not stated),-0.6,nt,nt,3.8,i,nt,-2,0
COc1cccc(C(=O)Nc2ccc(S(=O)(=O)N3CCCCC3)cc2)c1OC,-0.3,-3,1,3.9,11,-8.0,1,11
CCn1cc(C(=O)N2CCN(Cc3ccc4c(c3)OCO4)CC2)c(=O)c2ccc(C)nc21,-0.3,-2,1,2.9,-4.3,2.9,-9,-2
CC#CC(=O)NC1CCCN(C2Cc3ccccc3C2)C1 (configuration not stated),0.7,11,-3,-0.2,1.4,-0.7,-5,2
COC(=O)C1=C(C)NC2=C(C1c1ccc(O)cc1)S(=O)(=O)c1ccccc12 (configuration not stated),-1.1,nt,-6,-22,0.3,-3.8,0,-80
CCOC(=O)C(CC)n1cnc2c(nnn2-c2cccc(OC)c2)c1=O (configuration not stated),-0.7,-8,3,1.1,-2.3,-0.1,nt,2
